Screening data (PubChem BioAssay)
VACV mCherry inh: inhibitors of vaccinia virus infection (mCherry reporter signal); Vaccinia virus mCherry reporter infection, fluorescence; about a quarter of the inactives have no number; 0.63% of 310,000 active; Potency, µM (highest dose often 36.5 µM), inactives show top-dose activity change, negative = inhibition, usual class: inhibitors; active = well fitted inhibition curve with a large enough effect; inconclusive = small, poorly fitted or top-dose-only effect; inactive = no such curve, though single readings can be large or run the other way; tested in A549 cells; also: nearly all actives have a fitted effect of over 35% in size; inactives centre near -10
Vaccinia Venus: vaccinia inhibition (Venus reporter); 0.46% of 330,000 active; Potency, µM (series often up to 36.5 µM), for inactives: at the top dose activity change, negative = inhibition, usual class: inhibitors; Vaccinia virus Venus reporter expression, fluorescence; AID 720580; active means well fitted inhibition curve with a large enough effect; inconclusive means small, poorly fitted or top-dose-only effect; inactive means no such curve, though single readings can be large or run the other way; tested in A549 cells; also: nearly all actives have a fitted effect of over 30% in size; inactives centre near -10
Starred values were filed as active, the others as inactive; i = inactive; ? = inconclusive; . = no result given; & = joins results of further samples; [ ] = remark or other dose. % is scaled to controls: 0 for no effect and ±100 for the full control effect; potency is read from the fitted curve at half-maximal effect.

| mol | VACV mCherry inh | Vaccinia Venus |
| --- | --- | --- |
| COc1cc(C(CCN2CCCC2)c2c(OC)cc(OC)c3c(-c4ccccc4)cc(=O)oc23)cc(OC)c1OC (stereo not given) | -12% | ? |
| COC(=O)c1ccccc1NC(=O)c1cc2ccccc2o1 | i | -3% |
| C=C1C=C(C(F)F)n2ncc(C(=O)Nc3ccc(N(CC)CC)cc3)c2N1 | -17% | -11% |
| O=C(NCc1ccccc1)C(c1ccc(F)cc1)N(C(=O)c1csnn1)C1CCCC1 (stereo not given) | -5% | 5% |
| COc1ccc(S(=O)(=O)N2CCC(O)(c3cccnc3)CC2)cc1OC | i | -7% |
| CC(=O)NCC(=O)N1CCCC(C(=O)c2ccc(Oc3ccccc3)cc2)C1 (stereo not given) | -3% | 7% |
| Cn1c(=O)c2c(nc(Oc3ccccc3Cl)n2C)n(C)c1=O | -1% | -6% |
| CN(C)CCCNC(=O)CC(c1ccc(F)cc1)c1ccco1 (stereo not given) | . | -7% |
| COc1ccc(Cl)cc1NC(=O)NCCN1CCNC1=O | -13% | -10% |
| O=C(Nc1cc(-c2nc3ccccc3s2)ccc1Cl)c1cc2ccccc2o1 | -5% | 2% |
| CC(C)NCC(O)c1cc(O)cc(O)c1 (stereo not given) | 0%&-11% | -3%&-4% |
| CC1(C)NC(=S)NC1=S | -15% | -11% |
| COc1ccc(NC(=O)c2oc3ccc4c(c3c2C)C(=O)CC(C)(C)O4)cc1OC | -18% | -5% |
| O=C(c1cc(Br)ccc1Cl)N1CCN(c2ncccn2)CC1 | -16% | 2% |
| COc1ccccc1C(=O)C1CCCN(C(=O)c2ccc(C(C)=O)s2)C1 (stereo not given) | -14% | -8% |
| O=C(O)COc1ccc(-c2nc(-c3ccccc3)c(-c3ccccc3)[nH]2)cc1 | -3% | -4% |
| Cc1cccc(-c2noc(CSc3ccccc3)n2)c1 | -15% | -15% |
| CC(=O)Nc1ccc(Nc2cc(C)nc3c(-c4ccc(Cl)cc4)c(C)nn23)cc1 | ? | ? |
| COc1ccc(C(=O)CNc2cccc(F)c2)cc1 | ? | 3% |
| CCOc1ccc(-n2cc(C(=O)N3CCN(C)CC3)c3cc(OC)c(OC)cc3c2=O)cc1 | -18% | -3% |
| CCOc1ccc(S(=O)(=O)Nc2cccc(C(=O)N3CCN(c4cccc(OC)c4)CC3)c2)cc1 | -20% | -1% |
| Cc1cc(=O)[nH]c(SCC(=O)N2CCCC(C)C2)n1 (stereo not given) | 2% | 2% |
| CSc1cc(-c2ccc(Cl)cc2)n(Cc2ccccc2)c(=O)c1C#N | . | ? |
| CN1CCN(NC(=O)c2cc(-c3ccccn3)nc3ccccc23)CC1 | i | -8% |
| CC(=O)C1=C(O)C(=O)OC1c1ccc(Cl)cc1 (stereo not given) | -8% | 4% |
| O=C(CCC(=O)N(CC(=O)NC1CCCCC1)c1ccc(F)cc1)Nc1ccccn1 | -3% | -6% |
| COc1ccc(NC(=O)CN(C)C(=O)c2ccc(S(=O)(=O)N3CCOCC3)cc2)cc1 | -4% | -6% |
| OC[C@@H]1CN(Cc2ccc(-c3ccccc3)cc2)C[C@H](n2cnc3c(NCc4ccncc4)ncnc32)O1 | 10µM* | ? |
| Cc1ccc(C(=O)NCC(c2ccc(Cl)cc2)N2CCCCC2)cc1 (stereo not given) | -8% | -7% |
| O=C(COc1ccccc1O)NCCN1CCOCC1 | -13% | -6% |
| CC1Sc2ccc(S(=O)(=O)NCc3ccccc3)cc2NC1=O (stereo not given) | -3%[7.34 µM] | -6%[7.34 µM] |
| O=c1[nH]c(/C=C2\C=Nc3ccccc32)c(O)n1Cc1ccccc1F | ? | ? |
| O=C(Nc1ccc(S(=O)(=O)N2CCOCC2)cc1)c1cc(S(=O)(=O)N2CCOCC2)ccc1Cl | 0% | -15% |
| Cc1nc(C(=O)O)cc([N+](=O)[O-])c1C | i | -1% |
| Cc1ccc(NC(=O)c2cnc(N3CCCCC3)c3ccccc23)cc1Cl | -9% | -10% |
| Cc1ccn2c(Nc3ccc4c(c3)OCO4)c(-c3ccc(C)o3)nc2c1 | -1% | -3% |
| C/C(CCc1ccc2c(c1)OCO2)=N\N=C(/N)SC1CC(=O)N(c2ccccc2F)C1=O (stereo not given) | . | ? |
| CCOCCCn1c(SCC(=O)OCC)nc2c(sc3ccccc32)c1=O | -13% | 11% |
| NC[C@H](Cc1ccccc1)NCCCCC1CCCCC1 | ? | -4% |
| O=C1CCC(C(=O)N2CCCCCCC2)CN1Cc1cccc(C(F)(F)F)c1 (stereo not given) | -12% | -10% |
| Cc1ccc2nc(Cl)c3cc(C(=O)N4CCCCC4)sc3c2c1 | 4% | -11% |
| Cc1cccc(Nc2nc(Cl)ncc2F)c1C | -20% | -4% |
| CC(=O)OC1CC[C@@]2(C)C(CC[C@@]3(C)C2CC=C2C4CC(C)(C)CC[C@]4(C(=O)O)CC[C@@]23C)C1(C)C (stereo not given in full) | -19% | -16% |
| O=C(Nc1cccc(S(=O)(=O)N2CCOCC2)c1)c1ccc(Cl)c([N+](=O)[O-])c1 | i | -9% |
| CCOC(=O)C1=C(CNCc2ccc(F)cc2)NC(=O)NC1c1cccc([N+](=O)[O-])c1 (stereo not given) | ? | -6% |
| Cc1ccc(S(=O)(=O)N(CC#N)CC#N)cc1 | 5% | 5% |
| Cc1cc(NC(=O)CCC(=O)N(CC(=O)NCC2CCCO2)c2ccc(C)c(C)c2)no1 (stereo not given) | -7% | -5% |
| O=C1CCN(Cc2ccccc2)CCN1[C@H](CSc1ccccc1)c1ccccc1 | -12% | -17% |
| C[C@@H](C(=O)NCCc1ccccc1F)N1C(=O)N2CCc3c([nH]c4ccccc34)[C@@]2(C)C1=O | -21% | -11% |
| CCn1c(=O)c2cc(C(=O)Nc3cc(OC)c(OC)c(OC)c3)sc2c2ccccc21 | -12% | -21% |
| CC1(C(=O)Nc2ccc3c(c2)OCO3)CCN1C(=O)CC1CC1 (stereo not given) | i | 5% |
| O=C(NCc1cccc(C(F)(F)F)c1)c1[nH]c(C(F)(F)F)nc1-c1ccccc1 | -8% | -21% |
| CC(C)CNC(=O)COC(=O)/C=C/c1ccccc1[N+](=O)[O-] | 0% | 10% |
| COC(=O)CN(c1ccc2c(c1)OCCO2)S(=O)(=O)c1ccccc1 | . | -7% |
| Cc1ccc(CNC(=O)c2ccc(N3CCC4(CC3)CC(c3ccccc3)=NO4)c([N+](=O)[O-])c2)cc1 | i | -14% |
| O=C(NCCCn1ccnc1)c1ccc(S(=O)(=O)N2CCCCCC2)cc1 | . | -22% |
| COc1cc(/C=N/NC(N)=S)ccc1OCC(=O)Nc1ccc(C)c(C)c1 | . | -24% |
| CC1=C(C(=O)N2CCCCCC2)CC(CC(=O)NCCN2CCOCC2)C(=O)N1Cc1ccccc1 (stereo not given) | 16% | 9% |
| S=c1[nH]nc(-c2ccccc2)n1Cc1ccccc1 | i | -9% |
| CCOCCn1c(CN2CCN(C)CC2)nc2c1c(=O)n(C)c(=O)n2C | 14% | -3% |

15 entries from above in another layout.
Below each SMILES – VACV mCherry inh | Vaccinia Venus
> Cc1ccc(S(=O)(=O)N(CC#N)CC#N)cc1
    5% | 5%
> Cc1cc(NC(=O)CCC(=O)N(CC(=O)NCC2CCCO2)c2ccc(C)c(C)c2)no1 (stereo not given)
    -7% | -5%
> O=C1CCN(Cc2ccccc2)CCN1[C@H](CSc1ccccc1)c1ccccc1
    -12% | -17%
> C[C@@H](C(=O)NCCc1ccccc1F)N1C(=O)N2CCc3c([nH]c4ccccc34)[C@@]2(C)C1=O
    -21% | -11%
> CCn1c(=O)c2cc(C(=O)Nc3cc(OC)c(OC)c(OC)c3)sc2c2ccccc21
    -12% | -21%
> CC1(C(=O)Nc2ccc3c(c2)OCO3)CCN1C(=O)CC1CC1 (stereo not given)
    i | 5%
> O=C(NCc1cccc(C(F)(F)F)c1)c1[nH]c(C(F)(F)F)nc1-c1ccccc1
    -8% | -21%
> CC(C)CNC(=O)COC(=O)/C=C/c1ccccc1[N+](=O)[O-]
    0% | 10%
> COC(=O)CN(c1ccc2c(c1)OCCO2)S(=O)(=O)c1ccccc1
    . | -7%
> Cc1ccc(CNC(=O)c2ccc(N3CCC4(CC3)CC(c3ccccc3)=NO4)c([N+](=O)[O-])c2)cc1
    i | -14%
> O=C(NCCCn1ccnc1)c1ccc(S(=O)(=O)N2CCCCCC2)cc1
    . | -22%
> COc1cc(/C=N/NC(N)=S)ccc1OCC(=O)Nc1ccc(C)c(C)c1
    . | -24%
> CC1=C(C(=O)N2CCCCCC2)CC(CC(=O)NCCN2CCOCC2)C(=O)N1Cc1ccccc1 (stereo not given)
    16% | 9%
> S=c1[nH]nc(-c2ccccc2)n1Cc1ccccc1
    i | -9%
> CCOCCn1c(CN2CCN(C)CC2)nc2c1c(=O)n(C)c(=O)n2C
    14% | -3%

(continued)
| mol | VACV mCherry inh | Vaccinia Venus |
| --- | --- | --- |
| CCCCCCSc1nsc(NC(C)=O)n1 | -16%[1.46 µM] | -8% |
| CCCCCN=CC1=C(O)CC(c2ccccc2)CC1=O (stereo not given) | -9% | -5% |
| CCN1CCCC1CNC(=O)c1cnn(-c2nccc(-c3ccco3)n2)c1C1CC1 (stereo not given) | 0% | -12% |
| COc1ccc(C(CNC(=O)COc2ccccc2C)N2CCOCC2)cc1 (stereo not given) | -12% | -6% |
| CCC1=CC(c2ccccc2)n2ncnc2N1 (stereo not given) | -20% | -3% |
| CC(C)NC(=O)C1CCC(Cn2c(=O)c3sccc3n(CC(=O)NCc3ccccc3)c2=O)CC1 (stereo not given) | -5% | -3% |
| CCc1ccc(NS(=O)(=O)c2c(-c3ccccc3)csc2C(=O)OC)cc1 | -9% | -4% |
| c1ccc(CCNCCOc2ccccc2)cc1 | i | -9% |
| COc1cc2c(cc1O)C(Cc1ccc(O)cc1)NCC2 (stereo not given) | i | -10% |
| CCOC(=O)c1ccc(NC(=O)Cn2c(=O)cc(C)c3c(C)nn(-c4ccc(CC)cc4)c32)cc1 | -23% | ? |
| O=C(COc1ccc(Cl)cc1Cl)NC(=S)Nc1ccc(CN2CCOCC2)cc1 | -16% | -8% |
| COc1ccc(/C=C/C(=O)Nc2ccccc2C(F)(F)F)cc1OC | -18% | -13% |
| NC(=O)C1CCN(C(=O)C2CCN(S(=O)(=O)c3ccccc3)CC2)CC1 | i | -2% |
| O=C(c1ccccc1)n1c(=O)cc[nH]c1=O | i | -16% |
| COc1ccc2c(c1OC)C(=O)N(c1ccc(OCc3ccccc3)cc1)C2=O | i | -1% |
| COC(=O)C1=C(C)N(C)C(C)=C(C(=O)OC)C1c1ccccc1C | . | -4% |
| CCCc1ccc(OCc2ccc(C(=O)O)o2)c(OC)c1 | -9%[1.46 µM] | -7% |
| COC(=O)c1c(NC(=O)COc2ncnc3ccccc23)sc(C)c1C | 4% | -8% |
| CCS(=O)(=O)N1CCN(c2ccc([N+](=O)[O-])c(NC(C)c3ccccc3)c2)CC1 (stereo not given) | . | -5% |
| O=C(Cn1c(=O)c2cccn2c2ccc(F)cc21)Nc1cccc(F)c1 | -3% | -5% |
| CCCCN(CC)CCNC(=O)c1cc2c(=O)[nH]c3ccc(C)cc3c2s1 | -21% | ? |
| CC1=CC(c2ccc(Cl)cc2)n2ncnc2N1 (stereo not given) | i | -4% |
| COc1ccc(Cl)cc1NS(=O)(=O)c1c(C)nc2scc(C)n2c1=O | -12% | -17% |
| O=C(CC(=O)c1ccccc1)Nc1cccnc1Cl | -7% | 0% |
| CC1CCCCN1C(=S)NC(=O)c1ccccc1 (stereo not given) | -10% | -10% |
| Clc1cccc(Cl)c1CN1CCN(c2ncccn2)CC1 | i | -2% |
| COCC(=O)Nc1ccc(F)cc1 | -14% | -3% |
| O=C(CSc1nccn(-c2ccc(F)c(F)c2)c1=O)NC1CCCC1 | i | -12% |
| CCn1c(=O)cc(OCC(=O)Nc2ccc(OC)c(OC)c2)c2ccccc21 | -15% | 0% |
| Cc1ccc(CNC(=O)CSc2ncc(S(=O)(=O)c3ccc(Br)cc3)c(=O)[nH]2)cc1 | 7% | 1% |
| COC(=O)C1=C(C)N(C)C(=O)NC1c1c(O)ccc2ccccc12 (stereo not given) | -10% | -4% |
| O=C(NCCSc1ccccn1)c1ccc(Cl)cc1Cl | i | -12% |
| O=C(Nc1ccc(S(=O)(=O)Nc2nccs2)cc1)c1cc(-c2ccncc2)nc2ccccc12 | -2% | -7% |
| Cc1ccc(NC(=O)c2cc(N3CCOCC3)nc3ccccc23)cc1 | -25% | -21% |
| O=C(NC(=S)NCCc1ccccn1)c1ccccc1 | i | -10% |
| COc1ccc(OCCN2CCC(C(=O)NC(c3ccc(OC)cc3)c3ccccn3)CC2)cc1 (stereo not given) | i | -2% |
| O=C(N/N=C/c1ccco1)C12CC3CC(CC(C3)C1)C2 | 0% | -6% |
| CC1CC(=O)Nc2ccccc2N1C(=O)COc1ccccc1C(N)=O (stereo not given) | -21% | 3% |
| Nc1nc(Nc2ccccc2F)nc(NC2CCCCC2)c1[N+](=O)[O-] | ? | ? |
| CC[N+](CC)(CC)CCCOC(=O)C(O)(c1ccccc1)C1CCCCC1 (stereo not given) | i[1.46 µM] | -7% |
| Cc1ccc(-n2c(-c3ccccc3)c[n+]3c2CCc2ccccc2-3)c(C)c1 | ? | ? |
| CC(=O)c1cccc(NC(=O)C2CCCN2S(=O)(=O)c2cccc3nsnc23)c1 (stereo not given) | -3% | -9% |
| O=C(OCC(=O)N1CCOCC1)c1cncc(Br)c1 | -26% | -1% |
| Nc1c(C(=O)NC2CC2)c2nc3ccccc3nc2n1-c1ccc2c(c1)OCO2 | . | 36% |
